HCMV NEC inh – inhibitors of HCMV UL50-UL53 nuclear egress complex interaction; HTRF UL50-UL53 interaction, normalized percent inhibition; inhibition, % (test concentration not listed); hit rate 0.15% among 190,000;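 active means both replicates at 50% or more, plus weaker picks with an unusually low signal ratio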;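 further: stock transfer was 100 nL into about 20 µL; 0% = negative control wells and 100% = wells with untagged competitor protein; inactives centre near -12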
Sa growth 42C – blocks Staphylococcus aureus growth. relative growth, % (test concentration not listed). S. aureus RN4220 growth, OD600, 20 h, 42 °C; active compounds read low. hit rate 0.53% among 170,000;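 active means growth at 42 °C up to 50% and 20 or more points under that at 30 °C, or under 10% at both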;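 further: 300 nL library stock went into each well; scaled to the means of positive and negative controls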
GIV Gai3 FP – blocks GIV peptide binding to rat Galpha-i3. hit rate 0.42% among 210,000. AID 1224905. Galpha-i3/FITC-GIV peptide fluorescence polarization, 90 min; active compounds read low; scaled: aluminum fluoride 0%, vehicle 100%. P08753. percent of control (FP), % (test concentration not listed);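 active means replicate mean at 85% of control or lower, very high polarization wells dropped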;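 further: lower values mean more displacement of the GIV peptide from Galpha-i3; wells of about 15 µL received 100 nL stock; the first replicate is given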
Target sequence (P08753 whole entry, looked up): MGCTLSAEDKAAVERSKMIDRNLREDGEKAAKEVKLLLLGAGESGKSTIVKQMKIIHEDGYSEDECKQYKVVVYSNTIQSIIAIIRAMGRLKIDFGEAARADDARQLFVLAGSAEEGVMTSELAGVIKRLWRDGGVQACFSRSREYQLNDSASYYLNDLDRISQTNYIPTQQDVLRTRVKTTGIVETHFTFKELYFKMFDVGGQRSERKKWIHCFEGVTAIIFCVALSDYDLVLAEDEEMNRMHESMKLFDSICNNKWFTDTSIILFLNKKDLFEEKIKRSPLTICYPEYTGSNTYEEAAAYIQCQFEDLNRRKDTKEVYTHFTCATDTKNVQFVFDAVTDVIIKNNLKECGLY
Sa growth 42C second temp – recorded beside Sa growth 42C, whose call it bears; relative growth, %; measured here: growth at 30 °C;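 optical density after 20 h as mean of two plates; 100% = untreated growth and lower means inhibition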
An asterisk follows results filed as active; nt = no result given.

smiles | GIV Gai3 FP | Sa growth 42C second temp | HCMV NEC inh | Sa growth 42C
c1ccc2c(SCc3cn4ccccc4n3)nncc2c1 | nt | 83 | -11 | 100
COc1cc(Nc2ncc3c(n2)CCN(S(=O)(=O)c2ccc(F)cc2)C3)cc(OC)c1 | 106 | nt | -14 | nt
Clc1cccc(OCCN2CCOCC2)c1 | nt | 88 | -5 | 89
CCOC(=O)c1c(C)[nH]c(C(=O)N2CCC(CC(=O)NCc3ccc(CC)cc3)CC2)c1C | 107 | nt | -8 | nt
CC(C)CC1(C(=O)O)NC(c2ccccc2O)C2C(=O)N(C(C)C)C(=O)C21 (stereo not given) | nt | 80 | -12 | 88
Cc1nn(-c2ccccc2)c(C)c1P(=Nc1ccc(Br)cc1)(N1CCOCC1)N1CCOCC1 | nt | 92 | 3 | 107
CC1(C)CC(=O)c2cc(C#N)c(SCc3ccccc3)nc2C1 | 106 | 87 | nt | 75
Cc1ccc(-c2nnc3ccccc3c2C(=O)N(C)C2CCCCC2)cc1 | 99 | nt | -23 | nt
Cc1cccc(-c2nc(C)c(CCNC(=O)C(C)(C)C)s2)c1 | 100 | 81 | nt | 113
COCCNC(=O)c1ccc(CS(=O)(=O)Cc2ccc(C)cc2)o1 | 101 | 92 | -7 | 102
Cc1ccc(C)c(N2CCN(CCCNC(=O)Nc3cc(Cl)ccc3C)CC2)c1 | 106 | 94 | nt | 116
Fc1ccc(OCc2nnc3sc(-c4ccccc4F)nn23)cc1 | 110 | nt | 4 | nt
O=C(c1cc(-c2ccccn2)n[nH]1)N1CCN(C(=O)C2CCCCC2)CC1 | 98 | nt | 4 | nt
COc1ccc(-n2nc(C(=O)Nc3ccc(F)cc3)c(=O)n(C)c2=O)cc1 | 101 | nt | -79 | nt
CN1CCC(=NOC(=O)Nc2ccccc2)CC1 | 107 | 88 | -26 | 89
CCOC(=O)c1cnn(-c2ccc(C(C)C)cc2)c1C1CCN(C(=O)OC(C)(C)C)CC1 | 102 | 87 | nt | 80
CCN(CC)C(=O)c1sc2c(c1C)c(=O)n(Cc1ccccc1)c(=O)n2Cc1ccc(Cl)cc1 | 106 | 95 | nt | 105
CC(C)C(NC(=O)c1ccco1)C(=O)N1CCC(Cc2ccccc2)CC1 (stereo not given) | nt | 93 | -20 | 90
O=C(CSc1nnc(-c2cccs2)o1)Nc1cc(C(F)(F)F)ccc1N1CCOCC1 | nt | 97 | -8 | 98
O=C(NCc1ccc(Cl)cc1)c1cc2ccccc2nc1Cl | nt | 98 | 24 | 98
COc1ccc(Cn2c(SCc3ccc(C(=O)NCCc4cnc[nH]4)cc3)nc3cccnc32)cc1 | 110 | nt | -8 | nt
CCOC(=O)c1cc(-c2ccccc2)n(-c2cccc(C(=O)Nc3cccc(C)c3)c2)c1C | 98 | 100 | nt | 107
COc1ccc(C2=NN3C(C2)c2cc(Br)ccc2OC3c2ccc(OCc3ccccc3)cc2)cc1 (stereo not given) | 114 | nt | -12 | nt
Cc1cccc(OC(C)C(=O)N2CCC(c3nc4ccccc4o3)CC2)c1C (stereo not given) | 100 | 84 | -32 | 100
Cc1ccc(C2SC(=O)NC3=C2C(=O)c2ccccc23)cc1 (stereo not given) | nt | 63 | -22 | 106
COc1cc(-c2nc3ccc(Br)cc3c(=O)o2)ccc1OC(C)=O | 97 | 89 | -6 | 90
CC1CCc2c(sc3nc(SCC(N)=O)n(-c4ccccc4)c(=O)c23)C1 (stereo not given) | 99 | 85 | -11 | 96
Cn1cnnc1SCC(=O)N1c2ccccc2Sc2ccccc21 | 100 | nt | -17 | nt
Cc1cc(OCC(=O)N/N=C/c2ccc(I)o2)cc(C)c1Cl | 100 | 85 | 1 | 100
CCC(C(=O)N1CCN(c2ncccn2)CC1)n1ccc2cc(S(=O)(=O)N3CCCCC3)ccc21 (stereo not given) | 108 | 93 | -16 | 106
CCn1c(SCC(=O)Nc2ccc3c(c2)OCO3)nnc1C(C)NC(=O)c1ccccc1F (stereo not given) | 106 | 93 | -22 | 103
COc1ccc(NC(=O)c2oc3ccccc3c2NC(=O)C2CCCCC2)c(OC)c1 | 101 | 85 | -31 | 115
CCC1(C)N=c2c(c(=O)n(C)c(=O)n2C)=NO1 (stereo not given) | 105 | 77 | -61 | 107
Cn1nc(C(=O)NCCCN2CCCC2)c2c1-c1ccsc1CC2 | 101 | nt | 0 | nt
Cc1ccc(C(C)n2cc(C(=O)NCC3CCCO3)nn2)cc1 (stereo not given) | nt | 83 | -26 | 83
COc1ccc(-c2nc3nc(CN4CCCC4)cc(=O)n3[nH]2)cc1 | 104 | nt | -9 | nt
COc1cccc(N(CC(=O)N2CCC(C(N)=O)CC2)S(C)(=O)=O)c1 | 98 | 105 | -3 | 76
O=C(COCc1nc2ccccc2s1)Nc1ccc(-c2nnc3n2CCCCC3)cc1 | nt | 66 | -3 | 89
COc1ccccc1N1CCN(c2nc(C)c(CCC(C)C)c(=O)[nH]2)CC1 | 106 | nt | 1 | nt
CC(C)(C)N(Cc1ccccc1)C(=O)CSc1nc2c(cnn2-c2ccccc2)c(=O)[nH]1 | nt | 81 | -28 | 89
CC(=O)Nc1ccc(S(=O)(=O)NC2CC(=O)N(c3ccc(F)cc3)C2)cc1 (stereo not given) | 103 | 85 | -52 | 77
N#Cc1c(/N=C/c2ccco2)sc2c1CCCC2 | 107 | 55 | -27 | 80
Cc1ccc(S(=O)(=O)c2nc(-c3cccs3)oc2N2CCC(C)CC2)cc1 | 107 | 92 | -32 | 99
COc1ccc(C(=O)Nc2nnc(S(=O)(=O)N3CCCc4ccccc43)s2)cc1 | 102 | 91 | -14 | 128
Cc1cc(C(=O)Cn2ncc(Cl)c(Cl)c2=O)c(C)n1Cc1ccco1 | nt | 93 | -26 | 107
CCOC(=O)CSC1=Nc2ccccc2C2=NC(CCC(=O)NCc3ccc(OC)cc3)C(=O)N12 (stereo not given) | 97 | 89 | nt | 95
CCOc1cccc2cc(-c3nc4sc5c(c4c(=O)[nH]3)CCC(C)C5)c(=O)oc12 (stereo not given) | 100 | 106 | 8 | 96
CCOc1ccc(NS(=O)(=O)c2c(C)nc3sc(C)c(C)n3c2=O)cc1 | 101 | 91 | nt | 106

Entries of single compounds from above. Screens in order: GIV Gai3 FP	Sa growth 42C second temp	HCMV NEC inh	Sa growth 42C
Listed for COc1ccccc1N1CCN(c2nc(C)c(CCC(C)C)c(=O)[nH]2)CC1 = 106	nt	1	nt
Listed for COc1cccc(N(CC(=O)N2CCC(C(N)=O)CC2)S(C)(=O)=O)c1 = 98	105	-3	76
Listed for CCOC(=O)CSC1=Nc2ccccc2C2=NC(CCC(=O)NCc3ccc(OC)cc3)C(=O)N12 (stereo not given) = 97	89	nt	95

An excerpt from above in order of their number in GIV Gai3 FP, highest first:
| molecule | GIV Gai3 FP |
| --- | --- |
| Cn1nc(C(=O)NCCCN2CCCC2)c2c1-c1ccsc1CC2 | 101 |
| Cc1cccc(-c2nc(C)c(CCNC(=O)C(C)(C)C)s2)c1 | 100 |
| CCOC(=O)c1cc(-c2ccccc2)n(-c2cccc(C(=O)Nc3cccc(C)c3)c2)c1C | 98 |

Other structures.
smiles | GIV Gai3 FP | Sa growth 42C second temp | HCMV NEC inh | Sa growth 42C
CC1CCC(N2CC(=O)N(C3CCCCC3)C(c3ccc(F)cc3)C2=O)CC1 (stereo not given) | 110 | 94 | nt | 83
CCOc1ccc(CC(=O)NCCc2sc(-c3cccc(F)c3)nc2C)cc1 | 102 | 84 | nt | 88
Fc1ccc(-c2nn(-c3ccc(Cl)cc3)c3c2cnc2ccc(F)cc23)cc1 | 100 | 90 | nt | 92
CC(C)c1ccc2c(c1)c1c3n2CCN(CC(N)=O)C3CCC1 (stereo not given) | 97 | 85 | -12 | 85
O=C(Cc1ccc(Cl)cc1)Oc1ccc2c(c1)OCO2 | nt | 92 | 11 | 116
Cc1cccc(N2CCN(C(C)c3nc4ccccc4c(=O)[nH]3)CC2)c1C (stereo not given) | nt | 92 | -37 | 72
CCc1ccc(-n2nc(C)c3c(C)cc(=O)n(CC(=O)Nc4cc(C)ccc4C)c32)cc1 | 98 | 99 | nt | 93
CC(=O)N1C(=S)NC(=O)/C1=C\c1ccccc1Cl | 97 | 106 | -31 | 112
CN[C@@H]1[C@@H](O[C@H]2O[C@H](CO)[C@@H](N)[C@H](O)[C@H]2O)O[C@H]2C[C@@H](N)[C@@H](O[C@H]3[C@H](O)[C@@H](O)[C@H](N)C[C@@H]3N)O[C@@H]2[C@@H]1O | 107 | 88 | -35 | 83
O=c1c2cc(N3CCOCC3)ccc2nc(SCc2ccc(F)cc2)n1CCc1ccccc1 | 107 | 77 | nt | 86
COc1ccc(-c2nc(S(=O)(=O)c3ccc(Cl)cc3)c(NCc3ccccc3)o2)cc1 | 104 | 100 | 2 | 108
Cc1ccccc1N1C(=O)C(Oc2ccc(Cl)cc2)C1CNCC1CCCO1 (stereo not given) | 107 | 76 | -22 | 103
O=C(OCC(=O)N1CCN(c2ccccc2)CC1)c1ccc(-c2ccc(O)cc2)cc1 | nt | 87 | -35 | 79
O=C(N/N=C/CSc1nc2ccccc2o1)c1ccccc1 | nt | 88 | -22 | 74
Cc1ccc2nsnc2c1S(=O)(=O)NC(C)c1ccccc1 (stereo not given) | 105 | 96 | -83 | 104
O=C(Nc1c2c(nn1-c1ccc(Cl)cc1)CS(=O)(=O)C2)c1cccc(Cl)c1 | 101 | 89 | nt | 96
O=c1[nH]c(Cn2nnc(-c3ccccc3)n2)nc2ccccc12 | nt | 94 | -22 | 90
CCOc1ccc(-c2c(C#N)c(N)nc(SCC(=O)c3ccccc3)c2C#N)cc1 | 102 | nt | -11 | nt
O=C(CS(=O)(=O)Cc1ccccc1)Nc1ccccn1 | 106 | 78 | 6 | 105
Cc1nc2sc3ccccc3n2c(=O)c1S(=O)(=O)NCc1ccccc1 | 101 | nt | -9 | nt
Nc1nc(SCc2cccc(Br)c2)n[nH]1 | 99 | 94 | -32 | 100
Cc1ccc(OCc2cc(=O)n3oc(C)cc3n2)c(NC(=O)C2CC2)c1 | 101 | nt | 11 | nt
COc1cccc(NC(=O)c2c(C)oc3nc(C)nc(N4CCCC4)c23)c1 | 98 | 87 | nt | 88
Cc1ccc(N2C(=O)CN(C3CCCC3)[C@H]3CS(=O)(=O)C[C@H]32)cc1C | 111 | nt | 0 | nt
COC(=O)CN1C(=O)C(O)(CC(=O)c2ccc(F)cc2)c2ccccc21 (stereo not given) | 104 | 84 | -27 | 105
CCN1CCN(c2cc(-c3ccccc3)nc(C)n2)CC1 | 103 | nt | -6 | nt
CSc1ccc2nnc(-c3ccccc3)n2n1 | 112 | 60 | -60 | 76
Cc1nn(-c2ccccc2)c2sc(C(=O)N(CC(=O)NC3CCCC3)C3CC3)cc12 | 101 | 90 | -32 | 85
COc1ccc(-c2noc(-c3cccc(F)c3)n2)cc1 | 98 | 84 | nt | 106
CCCOc1ccc(NC(=O)CC2C(=O)N(c3ccc(C)cc3)C(=O)N2Cc2cccc(OC)c2)cc1 (stereo not given) | 106 | 83 | nt | 129
CCC(C)NC(=O)CN(c1ccc(C)cc1)S(=O)(=O)c1c(C)nn(C)c1C (stereo not given) | 104 | nt | -4 | nt
O=C(c1ccc(N2C(=O)CCS2(=O)=O)cc1)N1CCc2ccccc2C1 | 103 | nt | -9 | nt
COc1cccc(-c2ccc3c(N)c(C(=O)c4ccc(Cl)cc4)sc3n2)c1 | 115 | 74 | -39 | 116
COc1ccc(CN(C(=O)CN2C(=O)c3ccccc3S2(=O)=O)c2ccccc2O)cc1 | 101 | 67 | nt | 99
Cc1cc(C(=O)N2CCc3ccccc3C2)c2ccccc2n1 | nt | 105 | -8 | 99
COc1ccc(NC(=O)C(C)n2c(=O)cc(C)c3c(C)nn(-c4ccccc4)c32)cc1OC (stereo not given) | 102 | 83 | -10 | 104
COc1ccc(/C=C/C(=O)NCC(C)C)cc1OC | nt | 81 | -80 | 109
Cc1onc(-c2c(Cl)cccc2Cl)c1C(=O)NC(=S)N1CCN(c2ccccn2)CC1 | 106 | 2 | 5 | 14
O=C(CNCc1ccco1)Nc1ccc(Oc2ccccc2)cc1 | 93 | 111 | -10 | 124
Cc1[nH]c(C)c(S(=O)(=O)NC2CCN(Cc3ccccc3)CC2)c1C(=O)N1CCCCC1 | 101 | nt | -14 | nt
Cc1nn(-c2ccccc2)c2c1N(C(=O)CCC(=O)N1CCOCC1)CCS2 | 98 | 91 | -14 | 109
Fc1ccc(Nc2nc3nonc3nc2Nc2cccc(C(F)(F)F)c2)cc1 | 99 | -1.0* | -26 | -1.0*
Cc1cc(C)c2oc(-c3ccc(NC(=O)c4ccc5c(c4)OCCO5)cc3)nc2c1 | 98 | nt | -18 | nt
Cc1ccccc1OCc1nc(C#N)c(NC(C)c2ccccc2)o1 (stereo not given) | 91 | 80 | nt | 82
O=C(O)c1ccc(COc2ccc(Cl)cc2CO)cc1 | 101 | 85 | -20 | 91
O=C(CSc1nc(-c2ccc3c(c2)OCO3)nc2cc(=O)[nH]n12)NCCCc1ccccc1 | 99 | nt | 6 | nt
CCN1CCCC1CN1CNC(=S)NC1 (stereo not given) | 104 | 87 | -13 | 93

Only Sa growth 42C second temp, GIV Gai3 FP and Sa growth 42C, for some of the entries so far:
Compound | Sa growth 42C second temp | GIV Gai3 FP | Sa growth 42C
O=C(O)c1ccc(COc2ccc(Cl)cc2CO)cc1 | 85 | 101 | 91
Cc1nn(-c2ccccc2)c2c1N(C(=O)CCC(=O)N1CCOCC1)CCS2 | 91 | 98 | 109

Compound activity: PubChem, ICCB-Longwood Screening Facility, Harvard Medical School

An unsorted share of the library; 0.85% or so of the library scored in one or more.
